Vaccinia stage: blocks a specific stage of Vaccinia orthopoxvirus infection. AID 1053133. Vaccinia-infected cells, mCherry/Venus stage reporter fluorescence; active compounds read low; some inactives read as strong as hits. 89,000 compounds, 0.01% hits. activity change (mCherry), % (no concentration beside the values);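 active means mCherry past -33% and 40 or more points under the early reporter, replicates agreeing; inconclusive means past -33% without that gap or agreement; tested in A549 cells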;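 further: scaled between vehicle wells and reference inhibitor wells; 23 nL library stock went into each well; one replicate is shown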
Vaccinia stage Venus: also measured in Vaccinia stage; calls as there; activity change (Venus), %; measured here: Venus reporter, other viral stage;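 negative = less Venus signal; first of two replicates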
An asterisk follows results filed as active; ? = inconclusive; . = not tested or not shown. The list is partial, so the mix of outcomes need not match the whole.

Preview:
SMILES	Vaccinia stage	Vaccinia stage Venus
COc1ccc(S(=O)(=O)N(C)C[C@@H]2Oc3ncc(C#CC(C)(C)O)cc3C(=O)N([C@H](C)CO)C[C@@H]2C)cc1	9.1	7.4
O=S(=O)(c1ccccc1)N1C[C@@H]2N[C@H](C1)C2c1ccc(/C=C/c2ccccc2)cc1 (stereo not given in full)	?	-17.0
COC(=O)[C@@H]1[C@@H](CO)[C@@H]2Cn3c(ccc(-c4cccnc4)c3=O)[C@H]1N2CCc1ccccc1	5.4	0.1
C[C@H]1CN([C@@H](C)CO)C(=O)c2c(c3ccccc3n2C)-c2ccccc2CO[C@@H]1CN(C)C	-15.9	-9.4
CC(C)CC#Cc1ccc([C@@H]2[C@H]3CN(C(=O)Nc4ccc(F)cc4)CC(=O)N3[C@H]2CO)cc1	?	.
COc1ccc(CN(C)C[C@@H]2OCCCC[C@H](C)Oc3ccc(NS(=O)(=O)c4c(C)noc4C)cc3C(=O)N([C@@H](C)CO)C[C@H]2C)cc1	-24.9	-21.4
C[C@@H]1CN([C@H](C)CO)C(=O)Cc2cc(NS(=O)(=O)c3ccc(F)cc3)ccc2O[C@@H]1CN(C)Cc1ccncc1	-6.9	-15.4

Results, from the first entry:
SMILES	Vaccinia stage	Vaccinia stage Venus
COc1ccc(S(=O)(=O)N(C)C[C@@H]2Oc3ncc(C#CC(C)(C)O)cc3C(=O)N([C@H](C)CO)C[C@@H]2C)cc1	9.1	7.4
O=S(=O)(c1ccccc1)N1C[C@@H]2N[C@H](C1)C2c1ccc(/C=C/c2ccccc2)cc1 (stereo not given in full)	?	-17.0
COC(=O)[C@@H]1[C@@H](CO)[C@@H]2Cn3c(ccc(-c4cccnc4)c3=O)[C@H]1N2CCc1ccccc1	5.4	0.1
C[C@H]1CN([C@@H](C)CO)C(=O)c2c(c3ccccc3n2C)-c2ccccc2CO[C@@H]1CN(C)C	-15.9	-9.4
CC(C)CC#Cc1ccc([C@@H]2[C@H]3CN(C(=O)Nc4ccc(F)cc4)CC(=O)N3[C@H]2CO)cc1	?	.
COc1ccc(CN(C)C[C@@H]2OCCCC[C@H](C)Oc3ccc(NS(=O)(=O)c4c(C)noc4C)cc3C(=O)N([C@@H](C)CO)C[C@H]2C)cc1	-24.9	-21.4
C[C@@H]1CN([C@H](C)CO)C(=O)Cc2cc(NS(=O)(=O)c3ccc(F)cc3)ccc2O[C@@H]1CN(C)Cc1ccncc1	-6.9	-15.4
COCC(=O)Nc1ccc2c(c1)C(=O)N(C)C[C@H](OC)[C@H](C)CN(Cc1cncnc1)[C@H](C)CO2	18.3	-5.2
C[C@@H]1CN([C@@H](C)CO)C(=O)c2cc(NC(=O)CCCCCC(=O)Nc3ccccc3N)ccc2O[C@@H]1CN(C)S(C)(=O)=O	31.1	16.4
C[C@@H]1CN([C@H](C)CO)C(=O)Cc2cc(NC(=O)Nc3cccc4ccccc34)ccc2O[C@@H]1CN(C)Cc1ccc(Cl)c(Cl)c1	-8.4	-5.6
CCCC(=O)Nc1ccc2c(c1)C(=O)N(C)[C@@H]1CC[C@@H](CC(=O)Nc3cn(C)nc3C)O[C@H]1CO2	5.3	1.7
O=C(Nc1ccccc1F)N1C[C@@H]2N[C@H](C1)C2c1ccc(/C=C/c2ccccc2)cc1 (stereo not given in full)	-17.4	-7.3
COc1ccccc1-c1ccc2n(c1=O)C[C@@H]1[C@@H](CO)[C@H](C(=O)Nc3nccs3)N(CC3CC3)[C@H]21	4.8	5.3
O=C(Nc1ccc2c(c1)OCO2)N[C@@H]1CC[C@@H](CCNC(=O)C2CCOCC2)O[C@H]1CO	9.2	2.4
C[C@H](CO)N1C[C@H](C)[C@@H](CN(C)Cc2ccc(-c3ccccc3)cc2)Oc2ccc(NC(=O)CCC(F)(F)F)cc2C1=O	-21.6	-15.2
CC(C)N(C[C@H]1[C@H](c2ccccc2)[C@H](CO)N1S(C)(=O)=O)C(=O)CN(C)C	-0.1	4.7
C[C@H](CO)N1C[C@H](C)[C@H](CN(C)S(=O)(=O)c2cccs2)Oc2ccc(NC(=O)Cc3cn(C)c4ccccc34)cc2CC1=O	-23.9	-21.3
CNC(=O)C[C@H]1CC[C@H]2[C@@H](COc3ccc(NC(=O)Nc4ccc(Cl)cc4)cc3C(=O)N2C)O1	7.1	0.2
C[C@H](CO)N1C[C@H](C)[C@H](CN(C)S(=O)(=O)c2cn(C)cn2)OCCCC[C@H](C)Oc2ccc(NC(=O)Nc3ccccc3)cc2C1=O	21.5	11.6
Cc1ccc(S(=O)(=O)N(C)C[C@H]2Oc3c(NC(=O)Nc4ccc(C(F)(F)F)cc4)cccc3C(=O)N([C@@H](C)CO)C[C@@H]2C)cc1	?	.
CCNC(=O)C[C@H]1C=C[C@H](NC(=O)C2CCC2)[C@@H](CO)O1	3.3	3.3
O=C(Cc1ccccn1)N[C@H]1CC[C@H](CCn2cc(-c3cccnc3)nn2)O[C@@H]1CO	13.5	4.9
O=C(Nc1ccc2c(c1)[C@@H]1C[C@@H](CC(=O)N3CCc4ccccc4C3)O[C@@H](CO)[C@@H]1O2)NC1CCCC1	-9.1	-3.8
CCCNC(=O)[C@@H]1[C@@H](CO)[C@@H]2Cn3c(ccc(-c4ccncc4)c3=O)[C@H]1N2C(=O)CC1CC1	-22.2	1.0
C[C@H]1CN([C@@H](C)CO)C(=O)c2cc(NC(=O)Nc3cccc4ccccc34)ccc2O[C@H]1CN(C)Cc1ccc(C(F)(F)F)cc1	-20.4	-13.7
O=C(c1cccc(F)c1)N1C[C@H]2[C@@H](c3ccccc31)[C@H](CO)N2C(=O)C1CCCC1	7.2	6.4
CCNC(=O)C[C@@H]1CC[C@H]2[C@@H](COC[C@@H](O)CN2S(=O)(=O)c2ccc(Oc3ccccc3)cc2)O1	12.2	4.8
C[C@@H]1CN([C@H](C)CO)C(=O)c2cc(NS(=O)(=O)c3ccccc3)ccc2O[C@@H](C)CCCCO[C@@H]1CN(C)Cc1ccc2c(c1)OCO2	?	.
C[C@H]1CCCCO[C@H](CN(C)C(=O)Nc2ccc3c(c2)OCO3)[C@@H](C)CN([C@@H](C)CO)C(=O)c2cc(NS(=O)(=O)c3cccs3)ccc2O1	-4.5	-8.6
CC(=O)N1[C@@H]2Cn3c(ccc(/C=C/c4ccccc4)c3=O)[C@H]1[C@@H](C(=O)NCC1CC1)[C@@H]2CO	6.0	3.6
C[C@@H]1CCCCO[C@H](CN(C)C(=O)Cc2ccccc2)[C@H](C)CN([C@H](C)CO)C(=O)c2cc(NC(=O)c3ccncc3)ccc2O1	9.2	1.8
CC(C)NC(=O)Nc1ccc2c(c1)CC(=O)N([C@@H](C)CO)C[C@H](C)[C@@H](CN(C)C(=O)NC1CCCCC1)O2	13.8	9.4
CCNC(=O)[C@H]1[C@H](CO)[C@H]2Cn3c(ccc(C4=CCCCC4)c3=O)[C@H]2N1Cc1ccccc1	0.4	4.1
COc1cccc(S(=O)(=O)Nc2ccc3c(c2)[C@H]2C[C@@H](CC(=O)NCCc4ccccc4)O[C@H](CO)[C@H]2O3)c1	-2.3	1.9
CN(C)C(=O)c1ccc(-c2ccc([C@@H]3[C@H](CO)N4CCCCN(CCC(F)(F)F)C[C@@H]34)cc2)cc1	18.4	-1.5
COCC(=O)Nc1ccc2c(c1)C(=O)N(C)C[C@@H](OC)[C@@H](C)CN(C(=O)CC1CC1)[C@H](C)CO2	1.2	9.8
C[C@@H]1CN([C@H](C)CO)C(=O)c2cccc(NC(=O)Nc3ccc(C(F)(F)F)cc3)c2O[C@H]1CN(C)CC1CCCCC1	-10.6	-9.1
Cc1noc(C)c1S(=O)(=O)Nc1ccc2c(c1)C(=O)N([C@H](C)CO)C[C@H](C)[C@H](CN(C)C(=O)Nc1cccc3ccccc13)O2	25.8	21.2
CN(C[C@@H]1[C@H](c2ccccc2)[C@H](CO)N1Cc1ccccn1)S(C)(=O)=O	17.9	20.3
C[C@@H]1CCCCO[C@@H](CN(C)C(=O)CCCN(C)C)[C@H](C)CN([C@H](C)CO)C(=O)c2cc(NC(=O)NC3CCCCC3)ccc2O1	14.8	5.4
CO[C@H]1CN(C)C(=O)c2ccc(NC(C)=O)cc2OC[C@@H](C)N(Cc2ccccn2)C[C@@H]1C	10.7	6.6
C[C@@H]1CCCCO[C@@H](CN(C)Cc2ccncc2)[C@@H](C)CN([C@H](C)CO)C(=O)c2cc(NC(=O)Nc3ccc(C(F)(F)F)cc3)ccc2O1	-12.2	-3.6
C[C@H]1CCCCO[C@@H](CN(C)C(=O)C2CCCCC2)[C@@H](C)CN([C@@H](C)CO)C(=O)c2cc(NC(=O)Nc3ccc(F)cc3)ccc2O1	?	.
CN1c2ccc(-c3ccccc3)cc2[C@@H]2[C@@H](CCN2C(=O)c2ccccc2F)[C@@H]1CO	?	.
CC(C)NC(=O)Nc1ccc2c(c1)C(=O)N([C@H](C)CO)C[C@@H](C)[C@H](CN(C)Cc1ccc(C(=O)Nc3ccccc3N)cc1)O2	12.8	9.6
CN1CCN(C(=O)C[C@@H]2CC[C@H]3[C@@H](COC[C@@H](O)CN3CC3CC3)O2)CC1	-3.8	-2.2
C[C@H](CO)N1C[C@H](C)[C@@H](CN(C)C(=O)Nc2ccc(C(F)(F)F)cc2)Oc2c(NS(=O)(=O)c3cn(C)cn3)cccc2C1=O	9.5	7.2
Cc1ccccc1S(=O)(=O)N[C@@H]1CC[C@H](CCn2cc(-c3ccccc3)nn2)O[C@H]1CO	-5.4	-1.6
CNC[C@@H]1Oc2ccc(NC(=O)Nc3ccc(C(F)(F)F)cc3)cc2C(=O)N([C@@H](C)CO)C[C@H]1C	-6.8	-8.3
CC(C)NC(=O)N(C)C[C@@H]1OCCCC[C@@H](C)Oc2ccc(NC(=O)CCCN(C)C)cc2C(=O)N([C@H](C)CO)C[C@@H]1C	20.3	7.3
Cc1cccc(S(=O)(=O)N2C[C@H](O)COC[C@H]3O[C@H](CC(=O)Nc4ccccc4)CC[C@@H]32)c1	-18.5	-14.9
CCCC#Cc1ccc2c(c1)O[C@@H](CN(C)C(=O)NCCC)[C@@H](C)CN([C@H](C)CO)S2(=O)=O	-5.3	-6.0
C[C@@H]1CCCCO[C@@H](CN(C)C(=O)Nc2ccc(C(F)(F)F)cc2)[C@@H](C)CN([C@H](C)CO)C(=O)c2cc(NS(=O)(=O)c3cccs3)ccc2O1	-13.6	-11.0
C[C@@H]1CCCCO[C@H](CN(C)C(=O)c2ccncc2)[C@H](C)CN([C@H](C)CO)C(=O)c2cc(NS(=O)(=O)c3cccs3)ccc2O1	2.1	-5.0
CO[C@@H]1CN(C)C(=O)c2ccc(NC(=O)CC(F)(F)F)cc2OC[C@H](C)NC[C@H]1C	8.6	12.9
CCCNC(=O)N1C[C@@H](O)COC[C@H]2O[C@H](CC(=O)NCc3ccncn3)CC[C@@H]21	-2.2	-8.9
CO[C@@H]1CN(C)C(=O)c2cc(NC(=O)Nc3ccc(Cl)cc3)ccc2OC[C@H](C)NC[C@H]1C	-27.6	-14.5
C[C@@H]1CCCCO[C@H](CN(C)C(=O)CCCN(C)C)[C@@H](C)CN([C@@H](C)CO)C(=O)c2cc(NC(=O)Nc3cccc4ccccc34)ccc2O1	5.0	-4.5
C[C@H]1CN([C@@H](C)CO)C(=O)c2cccc(NC(=O)Nc3ccc4c(c3)OCO4)c2O[C@H]1CN(C)Cc1ccc(C(=O)O)cc1	8.4	2.6
COc1ccc(C(=O)NC(CC(C)C)C(=O)O)cc1 (stereo not given)	11.3	-2.9
Other results follow.
SMILES	Vaccinia stage	Vaccinia stage Venus
C[C@H](CO)N1C[C@H](C)[C@@H](CN(C)Cc2ccncc2)Oc2ccc(NS(=O)(=O)c3ccccc3)cc2C1=O	-3.3	0.0
C[C@H](CO)N1C[C@H](C)[C@H](CN(C)C(=O)Nc2ccc(C(F)(F)F)cc2)Oc2ccc(NC(=O)CCC(F)(F)F)cc2C1=O	1.8	5.6
COc1ccc(NC(=O)Nc2ccc3c(c2)CC(=O)N([C@H](C)CO)C[C@H](C)[C@@H](CN(C)C(=O)NC2CCCCC2)O3)cc1	7.6	-1.3
CO[C@H]1CN(C)C(=O)c2ccc(NS(=O)(=O)c3ccccc3)cc2OC[C@@H](C)N(C(=O)NC(C)C)C[C@H]1C	-22.6	-17.3
Cc1ccc(S(=O)(=O)N(C)C[C@@H]2Oc3ncc(C#CC(C)(C)O)cc3C(=O)N([C@H](C)CO)C[C@@H]2C)cc1	29.4	16.8
C[C@@H]1CN([C@@H](C)CO)S(=O)(=O)c2ccc(C#CC3CC3)cc2O[C@@H]1CN(C)C(=O)c1cnccn1	5.9	-5.4
Cc1ccc(S(=O)(=O)N(C)C[C@@H]2Oc3ccc(NC(=O)NC(C)C)cc3CC(=O)N([C@@H](C)CO)C[C@H]2C)cc1	2.4	3.2
C[C@H](NC(=O)C[C@H]1C[C@H]2c3cc(N(C)C)ccc3O[C@H]2[C@H](CO)O1)c1ccccc1	-13.8	-5.2
CO[C@@H]1CN(C)C(=O)c2ccc(NC(=O)c3cnccn3)cc2OC[C@H](C)NC[C@@H]1C	15.6	14.6
CCCNC(=O)N(C)C[C@H]1Oc2cc(C#C[C@@H](C)O)ccc2S(=O)(=O)N([C@@H](C)CO)C[C@H]1C	12.5	7.9
O=C(Nc1cccc(Cl)c1)N[C@H]1CC[C@H](CCNC(=O)C2CCCCC2)O[C@@H]1CO	-8.5	-2.1
O=C(Nc1cc(F)ccc1F)N1CC(=O)N2[C@H](CO)[C@H](c3ccc(C#CC4CCCCC4)cc3)[C@H]2C1	-3.4	-36.4
CC(=O)N1[C@H](CO)[C@H](c2ccc(-c3cccnc3)cc2)[C@@H]1CNC(=O)C1CC1	-2.3	1.0
C[C@@H]1CCCCO[C@@H](CN(C)Cc2ccc(C(=O)O)cc2)[C@@H](C)CN([C@@H](C)CO)C(=O)c2cc(NC(=O)Nc3ccc(F)cc3)ccc2O1	18.8	9.0
Cc1ccc(S(=O)(=O)NC[C@H]2CC[C@@H]3[C@@H](CN3C(=O)CN(C)C)O2)cc1	19.0	13.1
O=C(c1ccccc1)N1CC[C@H]2[C@H](CO)Nc3ccc(C#Cc4cccnc4)cc3[C@H]21	11.6	6.2

From PubChem
